Source: PubChem
Gal4-VP16 FLuc – counter-screen for ROR gamma inhibitors: Gal4-VP16 reporter | Drosophila S2 Gal4-VP16 UAS-luciferase, luminescence, 20 h | Potency, µM (doses to about 53.6 µM), without a hit: at the highest dose activity, negative = inhibition, hits mostly inhibitors | 310,000 tested, 3.5% active | AID 2546;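 also: Gal4-VP16 expression switched on by copper sulfate through the metallothionein promoter; % is scaled to controls: 0 for no effect and ±100 for the full control effect; nearly all actives have a fitted effect of over 50% in size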
ELG1 DNA repair – ELG1-dependent DNA repair inhibition | 330,000 tested, 2.3% active | Potency, µM (highest dose often 46.1 µM), for inactives: at the top dose activity change, negative = inhibition, usual class: inhibitors | AID 504467 | HEK293T ELG1-luciferase reporter, luminescence, 16 h; DNA damage induced by 5-fluorouridine; also: % is scaled to controls: 0 for no effect and ±100 for the full control effect; nearly all actives have a fitted effect of over 55% in size
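In this reporter screen, reduction of luminescence relative to DMSO vehicle indicated activity. Compounds and 5-fluorouridine were added together to 2,000 cells per well, incubated for 16 hr at 37 °C, then developed with ONE-Glo.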
Mito fusion yeast – mitochondrial division inhibition or fusion activation; S. cerevisiae fusion-defective mutant growth rescue, CellTiterGlo 48 h; Potency, µM (titrated, usually from 46.1 µM), for the others: top-dose growth rescue (activation), actives largely listed as activators; 320,000 tested, 0.23% active; AID 485298;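 also: % of control where 0% means no effect; nearly all actives have a fitted effect of over 45% in size; temperature-sensitive fusion mutants such as fzo1-1 at 37 °C on non-fermentable ethanol glycerol medium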
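Temperature-sensitive fusion-defective S. cerevisiae (e.g. fzo1-1, mgm1-5) were grown with compound in YPEG medium (3% ethanol, 3% glycerol) for 48 hours at 37C. Growth rescue was measured as viability by CellTiterGlo luminescence after 10 minutes at ambient.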
NPC1 promoter act – activates the NPC1 promoter; AID 485313; 320,000 tested, 2.4% active; Potency, µM (series often up to 9.22 µM), without a hit: at the highest dose activation, most hits filed as activators; Huh7 NPC1 promoter luciferase reporter, 24 h;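 also: % of control where 0% means no effect; nearly all actives have a fitted effect of over 60% in size; reporter is driven by a mutant NPC1 promoter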
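Luciferase expression driven by the NPC1 promoter was measured in stably transfected Huh7 cells after a 24 h compound incubation, using a luciferase reagent and a luminescence read.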
RORgamma inh – ROR gamma (mouse) transcription inhibition. P51450. Drosophila S2 Gal4-RORgamma UAS-luciferase reporter, 20 h. Potency, µM (highest dose often 53.6 µM), inactives show top-dose activity change, negative = inhibition, usual class: inhibitors. 310,000 tested, 5.4% active. AID 2551; also: % is scaled to controls: 0 for no effect and ±100 for the full control effect; nearly all actives have a fitted effect of over 60% in size
Target sequence (P51450 whole entry, looked up, the tested form may be a part): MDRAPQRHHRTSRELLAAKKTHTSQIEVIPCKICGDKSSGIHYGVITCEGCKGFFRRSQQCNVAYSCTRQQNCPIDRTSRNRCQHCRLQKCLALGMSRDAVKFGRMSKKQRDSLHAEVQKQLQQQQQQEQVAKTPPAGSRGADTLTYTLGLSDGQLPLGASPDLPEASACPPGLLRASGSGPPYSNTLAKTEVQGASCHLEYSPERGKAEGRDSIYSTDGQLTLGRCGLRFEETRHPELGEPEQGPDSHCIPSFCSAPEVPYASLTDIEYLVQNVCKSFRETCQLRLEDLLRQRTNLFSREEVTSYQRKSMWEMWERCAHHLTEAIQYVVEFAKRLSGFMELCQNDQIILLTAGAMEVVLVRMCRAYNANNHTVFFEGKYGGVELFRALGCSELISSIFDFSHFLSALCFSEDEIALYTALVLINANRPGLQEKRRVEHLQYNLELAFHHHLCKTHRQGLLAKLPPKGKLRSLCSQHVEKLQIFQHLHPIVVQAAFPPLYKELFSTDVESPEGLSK
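Drosophila Schneider cells stably carrying a metallothionein-driven Gal4 DBD–ROR gamma fusion and a UAS-Photinus luciferase reporter were exposed to compound for 1 hr, then induced with copper sulfate (700 uM final) for 20 hr at ambient temperature before luminescence reading.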
MBNL1 CUG block – MBNL1-poly(CUG) RNA binding inhibition; Q9NR56; TR-FRET MBNL1-His/biotin-(CUG)12 binding, 665/545 ratio; Potency, µM (top dose mostly 57.5 µM), inactives show at the highest dose activity change, negative = inhibition, most hits filed as inhibitors; 280,000 tested, 0.036% active; active = well fitted inhibition curve with a large enough effect in the signal ratio, with a control signal flat, not every such curve was filed as active; inconclusive = small, poorly fitted or top-dose-only effect, or effect the other way, or a change in a side signal; inactive = no such curve, though single readings can be large or run the other way; the % refers to the signal ratio; also: % is scaled to controls: 0 for no effect and ±100 for the full control effect
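Inhibition of protein-RNA binding appears as loss of TR-FRET between terbium anti-His antibody on MBNL1-His and streptavidin-XL665 on biotin-(CUG)12. Activity is normalized to buffer-only and uninhibited-complex controls.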
* hit, by the source's call; u = inconclusive; x = not tested or not shown; & = joins results of further samples; ! = not active in a repeat. Unless noted, calls follow the shape of the dose curve; as a rule, active = well fitted curve in the direction sought with a large enough effect; inconclusive = small, poorly fitted or top-dose-only effect, or another doubt; inactive = no such curve, though single readings can be large; an effect the other way counts as inactive or inconclusive. Potency is read from the fitted curve at half-maximal effect.

nr | Compound | Gal4-VP16 FLuc | ELG1 DNA repair | Mito fusion yeast | NPC1 promoter act | RORgamma inh | MBNL1 CUG block
1 | C[N+](C)(C)Cc1ccccc1 | 2%&2% | 6% | -1% | -3% | 13%&1% | 15%
2 | c1ccc2c(c1)-c1cccc3cccc-2c13 | -23% | 26% | 12% | -1% | 23% | x
3 | CN1CCN(Cc2ccc(Br)s2)CC1 | -5% | 23% | 2% | -2% | -6% | -3%
4 | CC[C@H]1C2C[C@H]3[C@@H]4N(C)c5ccccc5C45C[C@H](C2[C@H]5O)N3[C@@H]1O (stereo partly drawn) | x | 8% | 1% | -2% | x | x
5 | COc1ccc2c3c1OC1C(=O)CC[C@@]4(O)[C@@H](C2)N(C)CC[C@]314 (stereo partly drawn) | x | u | x | x | x | x
6 | C[C@]12CCC(=O)C=C1C=C[C@@H]1[C@@H]2CC[C@@]2(C)[C@H]1CC[C@@]2(O)CCC(=O)O | x | 28% | 3% | -3% | x | x
7 | CCN1C[C@]2(COC)C(O)C[C@H](OC)[C@@]34C5C[C@]6(O)C(OC)C(O)[C@](OC(C)=O)(C5C6OC(=O)c5ccccc5)C(C(OC)C23)C14 (stereo partly drawn) | 16% | x | x | x | 0% | x
8 | CCN(CC)c1ccc2c(cc1=O)[C@@H](NC)CCc1cc(OC)c(OC)c(OC)c1-2 | -7% | u | 10% | -14% | -7% | u
9 | NC(=O)c1ccc(NC(=O)COC(=O)C2(c3ccccc3F)CCCC2)cc1 | -7% | u | 1% | -2% | 16% | -6%
10 | O=c1c2ccccc2nc(-c2ccccc2)n1-c1ccccn1 | -5% | 8% | -2% | 1% | -2% | -12%
11 | S=C1NCCN1 | 1%&8% | -4% | -3% | -5% | 1%&-1% | -25%
12 | CN1CC[C@]23c4c5ccc(O)c4OC2[C@H](O)C=CC3[C@H]1C5 (stereo partly drawn) | x | 13% | x | x | x | x
13 | CCOC(=O)c1cc(CC)sc1/N=C/c1c(O)[nH]c(=S)[nH]c1=O | u | -1% | -5% | 0% | 18µM* | x
14 | c1ccc(OCC2CO2)cc1 (stereo not drawn) | -18% | 22% | -5% | -1% | 6% | x
15 | O=c1cc(-c2ccc(O)c(O)c2)oc2cc(O)cc(O)c12 | 11µM*! | u | -1% | 1% | 22µM*! | u

Twelve structures from above, ordered by SMILES length, ascending.
nr | Compound | Gal4-VP16 FLuc | ELG1 DNA repair | Mito fusion yeast | NPC1 promoter act | RORgamma inh | MBNL1 CUG block
11 | S=C1NCCN1 | 1%&8% | -4% | -3% | -5% | 1%&-1% | -25%
14 | c1ccc(OCC2CO2)cc1 (stereo not drawn) | -18% | 22% | -5% | -1% | 6% | x
1 | C[N+](C)(C)Cc1ccccc1 | 2%&2% | 6% | -1% | -3% | 13%&1% | 15%
2 | c1ccc2c(c1)-c1cccc3cccc-2c13 | -23% | 26% | 12% | -1% | 23% | x
10 | O=c1c2ccccc2nc(-c2ccccc2)n1-c1ccccn1 | -5% | 8% | -2% | 1% | -2% | -12%
15 | O=c1cc(-c2ccc(O)c(O)c2)oc2cc(O)cc(O)c12 | 11µM*! | u | -1% | 1% | 22µM*! | u
13 | CCOC(=O)c1cc(CC)sc1/N=C/c1c(O)[nH]c(=S)[nH]c1=O | u | -1% | -5% | 0% | 18µM* | x
5 | COc1ccc2c3c1OC1C(=O)CC[C@@]4(O)[C@@H](C2)N(C)CC[C@]314 (stereo partly drawn) | x | u | x | x | x | x
8 | CCN(CC)c1ccc2c(cc1=O)[C@@H](NC)CCc1cc(OC)c(OC)c(OC)c1-2 | -7% | u | 10% | -14% | -7% | u
4 | CC[C@H]1C2C[C@H]3[C@@H]4N(C)c5ccccc5C45C[C@H](C2[C@H]5O)N3[C@@H]1O (stereo partly drawn) | x | 8% | 1% | -2% | x | x
6 | C[C@]12CCC(=O)C=C1C=C[C@@H]1[C@@H]2CC[C@@]2(C)[C@H]1CC[C@@]2(O)CCC(=O)O | x | 28% | 3% | -3% | x | x
7 | CCN1C[C@]2(COC)C(O)C[C@H](OC)[C@@]34C5C[C@]6(O)C(OC)C(O)[C@](OC(C)=O)(C5C6OC(=O)c5ccccc5)C(C(OC)C23)C14 (stereo partly drawn) | 16% | x | x | x | 0% | x

This is a subset; rates above refer to the full screens.
